TRPML1 inh = blocks the human TRPML1 channel; Q9GZU1; TRPML1-inducible cells, Ca2+ dye fluorescence, FDSS; active compounds read low; inhibition of EC80 agonist-evoked calcium signal; actives 0.02% (n = 390,000); activity change, negative = inhibition, % (no concentration beside the values); in the data active means activity change below about -50%; inconclusive means about -30% to -50%; inactive means above about -30%;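 further: stimulus is agonist 54-4 at its EC80 concentration; on the % scale 0 is the no-effect control and ±100 the full control effect; compound concentration not given in the record; the text of the record puts the active cut at -80%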
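TRPML1-DL cells, Tet-induced overnight (~16 h, 37 °C) at 1,500 cells/well, were loaded with Ca8 no-wash dye plus quencher for 45-90 min at room temperature. Compounds were pinned during FDSS kinetic reading; agonist 54-4 at EC80 (4 uM final) then added.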
TRPML1 agonist = activates the human TRPML1 channel; actives 0.12% (n = 410,000); Q9GZU1; AID 624414; TRPML1-expressing cells, Ca2+ dye fluorescence, FDSS; host cell line not named in the record; reference of the full effect not given here; activation, % (no concentration beside the values); in the data active = activation above about 50%; inconclusive = about 30% to 50%; inactive = below about 30%; further: 0% is about no effect; the text of the record puts the active cut at 80%
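In this qHTS format, compounds were pin-transferred onto Ca8-dye-loaded TRPML1-DL cells induced with Tet overnight, and intracellular Ca2+ fluorescence was recorded kinetically for 110 s after a 10 s baseline. A subsequent 4uM final 54-4 (EC80) addition followed by a second 110 s read served as the antagonist phase.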
PINK1 modulator = PINK1 expression modulation | PINK1 immunofluorescence, high-content cytometry, 24 h | actives 0.2% (n = 410,000) | Potency, µM (highest dose often 76.6 µM), inactives show at the top dose activation (PINK1 increase), most hits filed as activators; active = well fitted activation curve with a large enough effect; inconclusive = small, poorly fitted or top-dose-only effect; inactive = flat fitted curve, though single readings scatter; cell line not stated here;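 further: potency means the concentration at half of the fitted maximal effect; % of control where 0% means no effect; nearly all actives have a fitted effect of over 65% in size; a mitochondrial uncoupler was the plate control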
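Stable cell line treated 24 h with compounds at 5 concentrations (CCCP controls), then fixed and immunostained for PINK1 plus nuclear and cell stains; PINK1 immunofluorescence quantified by laser-scanning microplate cytometry.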
Sfp PPTase inh = Sfp phosphopantetheinyl transferase inhibition | Biochemical Sfp PPTase activity, qHTS | Potency, µM, for inactives: max response, negative = inhibition, most hits filed as inhibitors | actives 3.5% (n = 310,000) | AID 1490; active means well fitted inhibition curve with a large enough effect; inconclusive means small, poorly fitted or top-dose-only effect, or another doubt; inactive means no such curve, though single readings can be large or run the other way;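 further: the enzyme is Sfp with the accession as filed and its product quenches rhodamine fluorescence; potency means the concentration at half of the fitted maximal effect; 0% = enzyme reaction without inhibitor and -100% = no enzyme wells; top concentration of the series not given in the record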
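Buffer: 50 mM Hepes-Na pH 7.6, 10 mM MgCl2, 0.01% Nonidet P-40, 0.01% BSA. Enzyme 15 nM, pre-exposed to compound 15 min; substrates then added and fluorescence change tracked over 30 min.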
TRPV1 potentiator = potentiators of human vanilloid receptor 1 (TRPV1); TRPV1-expressing cells, Fluo-8 calcium influx, capsaicin EC20 potentiation; host cell line not named in the record; control for the full effect not named in the record; potentiation, % at 8.33 µM; actives 0.02% (n = 320,000); AID 540277; active means potentiation above 80%; inconclusive means 30% to 80%; inactive means below 30%; further: 0% is about no effect
Target sequence (Q8NER1 whole entry, looked up): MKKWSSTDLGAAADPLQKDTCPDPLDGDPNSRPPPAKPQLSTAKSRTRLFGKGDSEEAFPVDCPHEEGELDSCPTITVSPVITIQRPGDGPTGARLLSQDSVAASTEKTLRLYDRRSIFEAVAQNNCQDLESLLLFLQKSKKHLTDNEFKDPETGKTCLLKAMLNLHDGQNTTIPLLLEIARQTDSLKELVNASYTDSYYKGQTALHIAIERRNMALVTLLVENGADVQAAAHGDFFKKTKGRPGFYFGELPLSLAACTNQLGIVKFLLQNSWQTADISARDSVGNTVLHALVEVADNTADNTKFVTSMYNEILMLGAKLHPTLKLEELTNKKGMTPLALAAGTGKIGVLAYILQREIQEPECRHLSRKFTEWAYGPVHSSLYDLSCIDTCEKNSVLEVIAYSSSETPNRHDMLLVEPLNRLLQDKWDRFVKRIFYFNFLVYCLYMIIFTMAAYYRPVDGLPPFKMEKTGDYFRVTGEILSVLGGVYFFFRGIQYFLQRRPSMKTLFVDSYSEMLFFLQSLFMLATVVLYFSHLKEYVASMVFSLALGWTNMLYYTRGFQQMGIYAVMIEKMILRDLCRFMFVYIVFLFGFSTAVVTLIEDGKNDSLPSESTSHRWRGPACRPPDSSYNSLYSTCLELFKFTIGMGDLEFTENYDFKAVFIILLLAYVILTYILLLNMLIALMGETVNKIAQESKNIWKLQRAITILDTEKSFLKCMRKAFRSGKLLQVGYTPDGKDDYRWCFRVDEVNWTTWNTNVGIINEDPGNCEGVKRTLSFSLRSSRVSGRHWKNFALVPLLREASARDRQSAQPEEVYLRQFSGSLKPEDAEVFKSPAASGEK
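Cells expressing TRPV1 were dye-loaded with Fluo-8 and read kinetically: 10 s baseline, 3 min after compound (agonist portion), then 2 min after EC20 capsaicin (allosteric enhancer portion). Calcium-bound dye fluorescence at 480/520 nm.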
ClpP mod = qHTS Assay for Activators of ClpP; purified B. subtilis ClpP, FRET peptide cleavage, 20 min; Potency, µM (top dose mostly 57.5 µM), for inactives: at the highest dose activity change, negative = active; actives 1.9% (n = 340,000); active = well fitted falling curve with a large enough effect; inconclusive = small, poorly fitted or top-dose-only effect; inactive = no such curve, though single readings can be large or run the other way; further: potency means the concentration at half of the fitted maximal effect; the source files actives as falling curves though it sought activators and does not explain the sign; nearly all actives have a fitted effect of over 65% in size; many hits overshoot -100%
Target sequence (P80244 whole entry, looked up): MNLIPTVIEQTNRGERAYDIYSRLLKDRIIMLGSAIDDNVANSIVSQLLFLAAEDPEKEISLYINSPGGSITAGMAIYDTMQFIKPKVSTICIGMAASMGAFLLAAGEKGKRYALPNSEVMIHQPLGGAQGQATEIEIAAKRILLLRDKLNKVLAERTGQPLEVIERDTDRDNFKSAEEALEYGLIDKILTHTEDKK
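FRET quenching reversal measured ClpP activation: 10 microg/mL B. subtilis ClpP at pH 8 with the FRET-FV decapeptide, read at 430 nm after 320 nm excitation. The 20-min minus 0-min signal was scaled between DMSO/no-enzyme wells and ADEP (5.8 microM final).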
Menin-MLL FL inh = displaces fluorescein MLL peptide from human menin. Fluorescence polarization, fluorescein-MLL peptide displacement from menin. FP activity change, % at 61.4 µM. 290,000 tested, under 10 active; inconclusive = falling polarisation curve, or a change in total fluorescence; inactive = total fluorescence flat and polarisation flat or rising; no compound was filed as active; the % refers to the polarisation; negative = inhibition;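 further: % of control where 0% means no effect; inhibitors lower the polarisation; unlabelled MLL peptide was the positive control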
An asterisk follows results filed as active; u = inconclusive; x = not tested or not shown; & = joins results of further samples; [ ] = remark or other dose.

Every second line gives: PINK1 modulator	TRPV1 potentiator	TRPML1 inh	TRPML1 agonist	ClpP mod	Sfp PPTase inh	Menin-MLL FL inh
> CSc1ncccc1C(=O)OCC(=O)N(C)Cc1ccc(C)cc1
 : 1.3%	x	-11	-0.2	-0.2%	x	x
> COCCNC(=O)C1CC2Cn3c(nc4cc5ccccc5cc43)C2N1C (centres undefined)
 : 1.8%	-5	1	-0.9	2.4%	-9%	6.5
> COC(=O)c1cn(C(=O)c2cc(OC)c(OC)c(OC)c2)c2ccccc12
 : 4.0%	u	35	-0.4	x	-6%	-4.8
> CCN(CC)c1ccc(NC(=O)c2ccc3c(c2)c(C)c(C)n3C)cc1
 : 5.9%	-6	-6	-0.9	x	-11%	7.2
> O=C(CCC(=O)c1ccc(F)cc1)Nc1ccc(Cl)cc1
 : -0.8%	x	-14	-0.7	1.2%	x	x
> Cc1sc2c(c1C)c(=O)n(-c1ccc(Cl)cc1)c(=O)n2CC(=O)c1ccccc1
 : -0.6%	x	49	0.0	0.6%	x	x
> COc1ccc(Br)c2oc(SC)cc(=O)c12
 : -0.7%	-12	10	1.4	-7.6%	13%	4.3[94.6 µM]
> COc1ccc(C2c3[nH]c4ccccc4c3C[C@H]3C(=O)N(c4ccccc4C(=O)N4CCC[C@H]4C(=O)O)C(=O)N23)cc1 (some centres undefined)
 : -0.1%	10	x	x	-4.6%	6%	-1.8
> Cc1ccc(O)c(CNc2nc3ccccc3n2C(C)C)c1
 : 2.2%	10	7	0.1	3.8%	3%	-7.3
> COc1ccccc1NS(=O)(=O)c1ccc(Cl)c(NC(=O)C(C)N2C(=O)c3ccccc3C2=O)c1 (centres undefined)
 : 2.9%	12	-8	2.2	-0.3%	u	-0.4
> Cc1cc2c(ncn2C(C)C)c(NS(=O)(=O)c2ccc(F)cc2)c1C
 : -0.4%	0	4	0.0	x	-2%	-0.6
> Cc1cc(=O)n2nc(N3CCCC(C(=O)NCc4ccc(Cl)cc4)C3)sc2n1 (centres undefined)
 : 2.0%	21	-11	0.8	4.6%	19%	x
> COc1cc(C(C)=O)ccc1Oc1ncnc2c1cnn2-c1ccc(C)c(C)c1
 : 6.1%	-2	-1	0.6	156%	-18%	3.4
> CC(C)(C)C(=O)NC(n1cnc2c(N3CCOCC3)ncnc21)C(Cl)(Cl)Cl (centres undefined)
 : 1.7%	-7	6	-0.2	x	-8%	-4.7
> COC(=O)CCCC(=O)N1CCCC(CCC(=O)NCc2ccc(F)c(F)c2)C1 (centres undefined)
 : 0.7%	6	15	0.6	x	u	-1.8
> CC(=O)N1CCc2[nH]c3ccccc3c2C1
 : 4.4%	-2	-2	1.7	-15%	13%	3.9
> CCC1CN(C(=O)N2CCC(C(=O)Nc3ccccc3OC)CC2)c2ccccc2O1 (centres undefined)
 : -0.1%	8	-9	-1.8	1.8%	17%	x
> CN(CC(=O)Nc1cccc(F)c1)C(=O)c1ccccc1Cc1ccccc1
 : 3.6%	-21	-2	0.2	-0.6%	x	x
> CC1CCN(S(=O)(=O)c2cc3c4c(c2)CC(=O)N4CCC3)CC1
 : 0.4%	x	-2	5.0	0.9%	x	x
> O=C(CSc1ccc(-c2ccccn2)nn1)N1CCCCC1
 : 1.8%	-15	-14	-0.8	x	-19%	0.0
> COc1ccc(Oc2cn[nH]c2-c2ccc(OC)cc2O)cc1
 : 6.4%	-9	3	1.4	x	13%	-6.9
> CCOC(=O)c1oc2ccccc2c1NC(=O)c1ccco1
 : 4.9%	1	-17	0.7	-0.4%	8%	x
> CCOc1ncccc1C(=O)OCc1c(F)cccc1Cl
 : 0.2%	-8	28	2.7	x	-7%	1.8
> CN(C(=O)COC(=O)Cc1c(Cl)cccc1Cl)C1CCS(=O)(=O)C1 (centres undefined)
 : 2.3%	-9	-5	0.1	0.5%	x	x
> O=C(O)CN(c1ccccn1)S(=O)(=O)c1ccc(Cl)cc1
 : 0.0%	-3	4	-0.3	u	-6%	3.9
> Nc1cccnc1-n1nc(C(F)(F)F)cc1C(F)(F)F
 : 1.5%	12	16	-1.2	x	16%	2.1
> CCOC(=O)C1CCN(C(=O)CN(c2ccc(Oc3ccccc3)cc2)S(C)(=O)=O)CC1
 : 1.4%	11	3	-0.7	x	5%	-1.8
> COc1ccc(CNC(=O)CC(C)c2ccccc2)cc1 (centres undefined)
 : 3.0%	1	-7	0.4	1.8%	17%	0.5
> COc1ccc(OCc2nc3ccccc3n2Cc2ccc(C(C)(C)C)cc2)cc1
 : 0.6%	x	10	1.6	-3.9%	x	x
> CC(=O)c1oc2ccccc2c1N
 : 7.5%[38.3 µM]	4	17	-0.4	-17%	21%	-0.5

An excerpt from above in order of the Menin-MLL FL inh value, rising.
structure,Menin-MLL FL inh
Cc1cc2c(ncn2C(C)C)c(NS(=O)(=O)c2ccc(F)cc2)c1C,-0.6
O=C(CSc1ccc(-c2ccccn2)nn1)N1CCCCC1,0.0
COc1cc(C(C)=O)ccc1Oc1ncnc2c1cnn2-c1ccc(C)c(C)c1,3.4

(continued)
Every second line gives: PINK1 modulator	TRPV1 potentiator	TRPML1 inh	TRPML1 agonist	ClpP mod	Sfp PPTase inh	Menin-MLL FL inh
> CC1c2cc3c(cc2CCN1C(=O)c1cccc(F)c1)OCCCO3 (centres undefined)
 : 1.0%	8	-3	-1.2	-2.9%	9%	x
> O=C(O)CCc1ccc(S(=O)(=O)Nc2cc(C(F)(F)F)ccc2N2CCCC2)cc1
 : 1.4%	8	-10	0.2	1.4%	x	x
> CCOC(=O)C1=C(C)N=c2s/c(=C\c3ccc(OC(C)=O)cc3)c(=O)n2C1/C=C/c1ccccc1 (centres undefined)
 : u	3	10	0.0	0.8%	-10%	u
> CCNc1c(NS(=O)(=O)c2ccc(F)c(Cl)c2)c(=O)oc2ccccc12
 : 16%	-1	-9	-1.8	-7.7%	20%	1.9
> CCN1CCN(C(=S)NC(CC(=O)c2ccccc2)c2ccccc2)CC1 (centres undefined)
 : -1.5%	x	24	0.7	x	12%	-1.7
> CC(Sc1ccc(Cl)cc1)C(=O)Nc1ccc2c(c1)OCO2 (centres undefined)
 : -2.0%	0	-6	1.3	-1.1%	9%	0.4
> NC(=O)c1ccc(NC(=O)C2CC2)cc1
 : 3.2%	18	-20	0.8	x	10%	0.5
> O=C(NCc1cccnc1)c1ccc2c(=O)n(CCCN3CCCC3=O)c(=S)[nH]c2c1
 : x	3	-3	0.6	-5.2%	-2%	-1.3
> CCOCCCNC(=O)c1cc2c(-c3ccc(Cl)cc3)nn(C)c2s1
 : 6.6%	4	13	0.6	4.3%	-7%	1.4
> COc1ccc(-n2c(=O)c(-c3ccc(F)cc3)nc3cnc(N4CCOCC4)nc32)cc1
 : 7.3%	x	x	x	x	-1%	-1.8
> COc1cc(Cl)c(C)cc1NC(=O)CC1SC(N2CCOCC2)=NC1=O (centres undefined)
 : 0.7%	-6	17	0.5	-0.3%	x	x
> CC1(C(=O)OCC(=O)Nc2cc(S(=O)(=O)N3CCOCC3)ccc2Cl)CC1(Cl)Cl (centres undefined)
 : 3.1%	x	-3	-0.3	1.1%	x	x
> CCOCCCNC(=O)CCC(=O)NNc1nc2ccccc2c2nc(-c3ccccc3)nn12
 : 0.2%&1.3%	8	-10&42	-0.7&-0.6	-4.5%&1.6%	14%	2.2
> O=C(N/N=C/c1cc(O)ccc1Br)c1cccnc1
 : -1.8%	9	-4	0.4	-4.4%	24%	u
> Cc1ccc(NC(=S)NNC(=O)c2ccc(N3CCOCC3)c([N+](=O)[O-])c2)cc1Cl
 : u	-11	57	2.6	-1.7%	3%	2.0
> CCn1c(=O)c(=O)n(CC)c2cc(N3CCCCC3)c(NC(=O)c3ccccc3OC)cc21
 : -0.1%	x	14	1.3	u	x	x
> COc1cccc(CC(=O)OCC(=O)NCCc2ccc(F)cc2)c1
 : 1.2%	-13	-13	-0.6	1.0%	x	x
> Cc1cc(C(=O)NCc2ccc3c(c2)OCO3)ccc1[N+](=O)[O-]
 : -0.1%	-14	0	1.8	-0.9%	-11%	-2.1
> CC1CCCCC1NC(=O)COC(=O)CN1C(=O)c2ccccc2C1=O (centres undefined)
 : -1.2%	-13	22	0.3	-0.7%	x	x
> COc1cc(CN(C(=S)NCC(=O)N2CCCC2)C2CCCC2)cc(OC)c1OC
 : 1.7%	u	2	-0.4	x	-10%	0.1
> O=C(NC(Cc1ccccc1)C(=O)O)/C(=C\c1ccc([N+](=O)[O-])cc1)NC(=O)c1ccco1 (centres undefined)
 : 0.5%	4	1	0.9	-7.4%	13%	-1.2
> COc1ccc(Nc2nnc(-c3cc4c(ccc5ccccc54)oc3=O)s2)cc1
 : -0.2%	x	9	1.3	-7.1%	x	x
> CC(C)CN(CCCNC(=O)c1cc(=O)[nH]c2ccc(S(=O)(=O)N3CCCCCC3)cc12)CC(C)C
 : 1.1%	x	2	-0.7	-0.7%	x	x
> COCCCNC(=O)c1ccc2c(=O)n(CC3CCCO3)c(=S)[nH]c2c1 (centres undefined)
 : 2.1%	-9	-7	0.1	-0.6%	-20%	0.2
> COc1ccc(OC)c(NC(=O)CSc2nc3scc(C)c3c(=O)[nH]2)c1
 : 13%	5	17	1.7	x	-4%	-0.9
> COc1cc(/C=N/Nc2snc(SC)c2C#N)ccc1O
 : 13%[38.3 µM]	2	-15	2.3	-22%	-22%	6.4
> O=C(Nc1ccc(-n2cnnn2)cc1)C1CCCN1C(=O)Nc1ccc(Br)cc1 (centres undefined)
 : -0.6%	-18	-2	0.3	x	6%	-3.0
> Cc1oc(-c2ccc(Cl)cc2)nc1CN1CCCC(C(=O)NCCc2ccc(Cl)cc2)C1 (centres undefined)
 : -1.0%	x	31	0.4	0.1%	x	x
> CCOc1ccc(NS(=O)(=O)c2ccc(C(=O)NCCCN3CCOCC3)cc2)cc1
 : -0.7%	u	2	0.6	1.8%	12%	x
> COc1ccc(NS(=O)(=O)c2ccc(/C=C/C(=O)O)cc2)cc1S(=O)(=O)N1CCOCC1
 : -0.3%	21	0	0.3	x	2%	-2.8
> Cc1ccc(N(CC(=O)NC(C)c2ccccc2)S(=O)(=O)c2c(C)n[nH]c2C)cc1 (centres undefined)
 : -0.3%	15	-5	0.4	-2.3%	-5%	1.1
> COc1ccc(Cl)cc1NC(=O)CN1CCN(C(=O)N2CCOCC2)CC1
 : -0.2%	x	-8	-0.1	1.3%	x	x
